# Screens as filed in PubChem.
# HNF4A DNA FP – change in binding of human HNF4 alpha to DNA | P41235 | HNF4a-FITC DNA binding, fluorescence polarization, 1 h | activity change, % at 10 µM | 360,000 compounds, 0.3% hits | AID 1224865; in the data active means activity change above about 30%, passing the limit was not always enough;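 further: controls were the assay level and a saturating level of protein; the project sought stronger binding though the title names inhibitors; some compounds called inactive have numbers as strong as hits; positive values seem to mean higher polarization but the record does not say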
# E coli growth – inhibitors of Escherichia coli growth; OD600, 23 h; active compounds read low; OD600 absorbance (no concentration beside the values); 330,000 compounds, 0.21% hits; AID 1053175;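 active means OD600 absorbance below the run mean of sample wells minus 3.6 SD, in any replicate, cut at about 0.56 in these data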;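 further: stock transfer was 300 nL into about 60 µL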
# rRNA inh HTS – selective bacterial rRNA inhibition in E. coli. E. coli WT GFP vs humanized-ribosome RFP mutants, fluorescence, 24 h; active compounds read low; DMSO median 0, no signal -100. GFP signal change (wild-type ribosome), % (concentration not given with the values). 350,000 compounds, 1.6% hits. AID 720706;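 active means significant combined selectivity score with lowered wild-type GFP, culture density cut under 30%, mutant RFP and density less affected; inactive means any of these conditions unmet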; further: one replicate is shown; some compounds called inactive have numbers as strong as hits
# UCH37 DUB inh – human UCH37 deubiquitinating enzyme inhibition; Q9Y5K5; purified proteasome/UCH37, Ub-AMC cleavage fluorescence; AID 588478; 330,000 compounds, 0.33% hits; inhibition, % (test concentration not listed);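 active means mean of two replicates above 20%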;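 further: 0% = compound-free wells with enzyme and 100% = wells lacking proteasome; stock transfer was 100 nL into about 20 µL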
# Target sequence (Q9Y5K5 whole entry, looked up): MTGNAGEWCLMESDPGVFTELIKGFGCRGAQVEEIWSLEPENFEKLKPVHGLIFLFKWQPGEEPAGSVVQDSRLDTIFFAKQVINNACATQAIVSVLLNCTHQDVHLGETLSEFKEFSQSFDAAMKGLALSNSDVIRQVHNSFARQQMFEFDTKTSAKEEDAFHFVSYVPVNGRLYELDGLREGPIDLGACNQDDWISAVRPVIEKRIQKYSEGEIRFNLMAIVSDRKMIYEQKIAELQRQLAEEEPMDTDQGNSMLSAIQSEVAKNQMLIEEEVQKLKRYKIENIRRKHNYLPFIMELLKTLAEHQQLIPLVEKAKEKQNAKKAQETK
#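 Signal – fluorescence, ex 355 nm, em 460 nm · System – Proteasome-bound UCH37 · Input – 0.15 nM proteasome as dispensed · Timing – 30 min preincubation with enzyme, 25 min cleavage at room temperature · Read-out basis – percent inhibition of cleavage signal versus uninhibited and no-proteasome wells · Medium – Tris-HCl pH 7.4 with ATP-MgCl2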
# Beta2AR agonist – human beta-2 adrenergic receptor agonism by FAP. Am2.2-beta2AR cells, FAP receptor internalization, flow cytometry; reference of the scale not given here. 340,000 compounds, 0.43% hits. AID 504454. response, % (concentration not given with the values);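 active means response above a set limit, near 3 SD of response in nonfluorescent compounds, cut at about 42% in these data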;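 further: stock transfer was 100 nL into about 11 µL; a reference agonist was the positive control; negative values mostly stem from fluorescent compounds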
# Target sequence (P07550 whole entry, looked up): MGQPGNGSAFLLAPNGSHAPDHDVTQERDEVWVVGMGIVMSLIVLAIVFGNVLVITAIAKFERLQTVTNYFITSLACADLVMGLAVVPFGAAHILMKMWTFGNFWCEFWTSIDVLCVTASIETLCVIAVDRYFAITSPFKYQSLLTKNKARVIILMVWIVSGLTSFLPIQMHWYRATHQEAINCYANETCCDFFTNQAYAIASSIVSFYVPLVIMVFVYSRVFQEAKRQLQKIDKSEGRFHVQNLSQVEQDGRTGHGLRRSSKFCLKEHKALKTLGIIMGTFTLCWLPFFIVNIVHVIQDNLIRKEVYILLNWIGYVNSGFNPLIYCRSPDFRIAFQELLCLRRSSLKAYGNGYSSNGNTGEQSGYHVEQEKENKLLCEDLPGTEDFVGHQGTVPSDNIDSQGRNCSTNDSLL
# ALR inh – human ALR oxidase inhibition via reduced H2O2; purified ALR, DTT oxidation, H2O2 HRP-luminol luminescence; inhibition, % (test concentration not listed); 290,000 compounds, 3.8% hits;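 active means mean and each replicate at 75% or more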;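 further: stock transfer was 7.5 nL into about 7.5 µL; 0% = neutral wells and 100% = wells with inactivated enzyme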
# Target sequence (P55789 whole entry, looked up): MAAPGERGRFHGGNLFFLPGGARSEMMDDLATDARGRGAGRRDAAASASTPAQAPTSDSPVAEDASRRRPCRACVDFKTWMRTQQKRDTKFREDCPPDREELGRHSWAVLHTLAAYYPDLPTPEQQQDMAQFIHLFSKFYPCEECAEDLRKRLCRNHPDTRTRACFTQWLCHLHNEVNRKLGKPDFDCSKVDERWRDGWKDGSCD
# FGF22 binding – shifts melting point of recombinant human FGF22; recombinant FGF22 thermal shift, SYPRO orange fluorescence; percent of sucrose octasulfate shift, DMSO zero; calls only at 9.99 µM; 340,000 compounds, 1.5% hits; Q9HCT0; AID 651658;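 active means melting point raised past a set limit in the mean and every replicate; three in four hits are not shown here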
# rRNA inh HTS OD600 – further read-out of rRNA inh HTS, marked with its call; OD600 change, %; measured here: OD600 growth;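 optical density of the mix in the first replicate; 0 = DMSO median and -100 = no signal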
# rRNA inh HTS RFP – also measured in rRNA inh HTS; calls as there; RFP signal change, %; measured here: RFP humanized mutant strains;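 first replicate; 0 = DMSO median and -100 = no signal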
# An asterisk follows results filed as active; i = inactive; x = not tested or not shown. An excerpt, so the mix of outcomes need not match the whole.
SMILES,HNF4A DNA FP,E coli growth,rRNA inh HTS,rRNA inh HTS OD600,rRNA inh HTS RFP,UCH37 DUB inh,Beta2AR agonist,ALR inh,FGF22 binding
Cc1ccc(/C([O-])=C(/C(=S)NCc2ccccc2)[n+]2ccccc2)cc1[N+](=O)[O-],1.4,0.72,-3,1,1.2,3.5,1,-8,i
S=C(c1ccc(-c2ccc(Br)cc2)o1)N1CCCCC1,-1.4,0.69,-20,-11,-3.0,6.5,-5,-21,i
Cc1ccc([N+](=O)[O-])c(OCCn2cnc3ccccc32)c1,2.4,0.68,-20*,-5.5*,-0.3*,1.5,2,-2,i
CCC1CN(C(=O)NCc2cccc(OC)c2)c2cc(Cl)ccc2O1 (configuration not stated),5.4,0.69,-12,-8,-0.2,-0.3,2,-5,i
Cc1nc2ccc([N+](=O)[O-])cc2c(=O)n1Cc1ccccc1Br,4.9,0.62,-6,-8,-1.2,3.0,12,-8,i
O=C(NCCCN1CCCC1=O)c1ccc2c(=O)n(Cc3ccco3)c(=S)[nH]c2c1,1.3,0.72,x,x,x,2.8,-10,25,x
O=C(Nc1ccccc1)Nc1ccc2ncoc2c1,0.4,0.65,8,-7,0.1,0.6,10,-14,i
COc1ccc(CCNC(=O)c2cccc(S(=O)(=O)NC(C)c3ccccc3)c2)cc1 (configuration not stated),3.7,0.71,-8,-34,-3.8,3.5,3,-3,i
NC(=O)CCN(C(=O)c1cccc(S(=O)(=O)N2CCc3ccccc32)c1)c1ccccc1,-0.1,0.68,-2,-22,3.8,-1.8,1,-1,i
Cc1occc1C(=O)N/N=C/C1=C(N2CCOCC2)C(=C\c2ccc(Cl)cc2Cl)/CC1,18,x,9,8,3.7,x,-2,6,i
COCC(=O)N/N=C\c1ccccc1OC/C=C/c1ccccc1,1.1,x,2,0,3.2,x,-1,3,i
CCN(CC)S(=O)(=O)c1ccc(F)cc1,2.7,0.67,x,x,x,1.9,0,-3,x
O=C(CSc1cn[nH]n1)Nc1cccc(C(=O)O)c1,5.1,0.66,7,11,-1.1,6.5,-3,x,i
O=C(Nc1ccc(-n2cccn2)cc1)C1CCCCN1Cc1cccc2c1OCO2 (configuration not stated),2.0,0.71,-39,-35,-7.5,1.5,-2,-7,i
Cc1ccc(OS(=O)(=O)c2ccc(N3C(=O)CCC3=O)cc2)cc1,1.5,0.68,-1,-6,0.5,-2.0,3,-5,i
CC1CCCCN1C(=O)CSc1ccc(-c2ccc(F)cc2)nn1 (configuration not stated),5.8,0.73,x,x,x,1.3,-1,-4,x
COc1cc(C(C)=O)ccc1OCc1cc(C(=O)N2CCSCC2)no1,9.0,0.74,9,3,1.1,0.2,-8,-6,i
Cc1cc(-n2c(C)cc(C(=O)COc3cccnc3[N+](=O)[O-])c2C)no1,5.4,0.64,-6,-6,-0.8,2.1,-2,x,i
COc1ccc2c(c1)CCc1cn[nH]c1-2,-1.6,0.67,2,4,1.2,3.0,-3,-7,i
C=CCNCCOCCOc1ccccc1-c1ccccc1,-1.1,0.68,-4,-3,-2.6,5.4,6,-2,i
O=C(COCc1cc(-c2cccs2)on1)NC1CCCCC1,-1.2,0.66,-3,-4,-1.1,3.6,-15,22,i
CN1CCN(Cc2ccc(Sc3ccc(Cl)cc3)c([N+](=O)[O-])c2)CC1,4.3,0.67,-34,-52,7.4,4.2,-6,-1,i
COc1ccc(S(=O)(=O)N(C)CC(=O)N2CCN(C)CC2)cc1C,0.2,0.69,x,x,x,3.8,-3,-6,x
O=C(NC(Cc1c[nH]c2ccccc12)C(=O)O)c1cccc(S(=O)(=O)N2CCCCC2)c1 (configuration not stated),-3.0,x,3,5,-0.4,x,x,x,i
CN(C1CCCCC1)S(=O)(=O)c1ccc(NC(=O)CCC(=O)O)cc1,0.5,0.78,x,x,x,-0.4,-5,-7,x

# Next part.
SMILES,HNF4A DNA FP,E coli growth,rRNA inh HTS,rRNA inh HTS OD600,rRNA inh HTS RFP,UCH37 DUB inh,Beta2AR agonist,ALR inh,FGF22 binding
COCCN1C(=O)CCC1(C)C(=O)NC(C)(C)C (configuration not stated),1.8,x,9,5,-3.2,x,x,x,i
CCN(C(=O)CSc1nnc(NCCOC)s1)c1c(N)n(Cc2ccccc2)c(=O)[nH]c1=O,5.5,0.67,9,12,1.3,0.6,-9,x,i
COc1ccnc(N2CCN(c3cccc(C(F)(F)F)c3)CC2)c1C#N,-1.6,0.71,x,x,x,-3.1,-2,-9,x
Cc1c(CN2CCC(n3nccc3NC(=O)c3cccc(F)c3)CC2)cnn1C,1.1,0.7,x,x,x,-0.7,-4,-4,i
COc1ccc(CNC(=O)CN(C(=O)CCC(=O)Nc2nccs2)c2cccc(C)c2)cc1,-1.4,0.68,3,5,-0.8,1.2,13,x,i
Cc1ccc(NC(=O)CN2C(=O)C3C4C=CC(C4)C3C2=O)cc1S(=O)(=O)N(C)C (configuration not stated),-2.3,0.7,x,x,x,-2.7,-4,1,i
CC/C(=N/OC(=O)c1cccc(C)c1)C(=O)c1cccs1,-4.5,x,0,-12,2.6,x,0,91*,x
CN(C)c1ccc(C=c2c3ccccc3n3c2c2c([n+]3C)CCCC2)cc1,19,x,-76,-78,-5.5,x,0,x,i
COc1ccc(C(=O)c2ccccc2Cl)cc1OC,0.3,0.72,-3,-3,-5.2,8.4,24,-9,i
C=CCCC(=O)Nc1nc(C)c(-c2csc(Nc3cccc(OC)c3)n2)s1,14,0.74,2,3,-1.9,-2.3,2,-2,i
O=C(O)c1cccc2c1-c1ccc(Cl)cc1C2=O,0.0,x,9,-15,0.1,x,5,x,i
C=CCN1C=C2C(=O)C(C)(OC(=O)c3cccs3)C(=O)C=C2C=C1CCCC(=O)OC (configuration not stated),-1.2,0.71,11,7,11,5.5,-5,-32,i
CC(C)C[C@@H]1COc2cccc(N3CCSCC3)c2S(=O)(=O)N1,-4.4,x,0,-44,-5.4,x,x,x,i
COc1ccc(NC(=O)COC(=O)Cc2ccsc2)c(OC)c1,-5.9,0.72,2,13,-2.5,3.9,-3,-3,i
CCNCc1cc([N+](=O)[O-])ccc1OCC,3.0,0.63,10,9,-0.9,6.7,4,x,i
Cc1snc(SCC(=O)c2ccc([N+](=O)[O-])cc2)c1C#N,0.3,x,17,13,1.3,-1.1,-13,x,x
CC(C(=O)N1CCCC1)N(c1ccccc1)S(C)(=O)=O (configuration not stated),-2.7,x,3,1,-3.5,x,0,x,i
NS(=O)(=O)c1ccc(CCNC(=O)CN2CCN(c3ccccc3F)CC2)cc1,-0.1,0.64,1,3,-4.2,0.2,1,-1,i
CC(=O)Nc1ccc(S(=O)(=O)NCCC(=O)OCC(=O)NCc2ccccc2)cc1,2.9,0.63,2,5,-2.4,0.0,5,-6,i
COc1ccc(C(=O)CC(=O)C(=O)Nc2ccccc2)cc1,4.6,0.69,4,0,-0.9,9.9,6,11,i
Cc1cccc(NC(=O)CSCC(=O)Nc2nnc(C3CC3)s2)c1,9.8,0.73,1,-1,-3.4,-0.4,-8,-58,i
O=C(NCc1ccc(F)cc1)c1cccnc1,4.7,0.65,3,-1,-1.4,-2.2,-5,6,i
C/C(=N/NC(=O)c1ccoc1C)c1ccc(NC(=O)c2ccncc2)cc1,7.0,x,9,12,1.0,x,-5,-1,i
COc1ccc([C@H]2/C=C\CN(C(=O)c3ccc(C)cc3)[C@@H](C)C(=O)N2Cc2ccc(F)cc2)cc1,3.2,x,-10,-18,-0.9,2.6,15,-20,i
CN(CC(=O)Nc1cccc(F)c1)C(=O)c1ccc(N2CCCCCC2)c([N+](=O)[O-])c1,0.1,0.7,0,-7,-1.4,3.0,19,-4,i

# One compound at a time (already shown). Order of values: HNF4A DNA FP	E coli growth	rRNA inh HTS	rRNA inh HTS OD600	rRNA inh HTS RFP	UCH37 DUB inh	Beta2AR agonist	ALR inh	FGF22 binding
# S=C(c1ccc(-c2ccc(Br)cc2)o1)N1CCCCC1 in the list: -1.4	0.69	-20	-11	-3.0	6.5	-5	-21	i
# COc1ccc(CNC(=O)CN(C(=O)CCC(=O)Nc2nccs2)c2cccc(C)c2)cc1 in the list: -1.4	0.68	3	5	-0.8	1.2	13	x	i
# COc1ccc(NC(=O)COC(=O)Cc2ccsc2)c(OC)c1 in the list: -5.9	0.72	2	13	-2.5	3.9	-3	-3	i
# Cc1ccc(/C([O-])=C(/C(=S)NCc2ccccc2)[n+]2ccccc2)cc1[N+](=O)[O-] in the list: 1.4	0.72	-3	1	1.2	3.5	1	-8	i
# COc1ccc(C(=O)c2ccccc2Cl)cc1OC in the list: 0.3	0.72	-3	-3	-5.2	8.4	24	-9	i

# Following part.
SMILES,HNF4A DNA FP,E coli growth,rRNA inh HTS,rRNA inh HTS OD600,rRNA inh HTS RFP,UCH37 DUB inh,Beta2AR agonist,ALR inh,FGF22 binding
COc1ccc(-c2csc(C(O)(c3ccccc3)C(F)(F)F)n2)cn1 (configuration not stated),-8.6,x,-59,-77,-17,x,x,x,i
O=C(COC(=O)CCC(=O)c1ccccc1)Nc1nnc(-c2ccccc2)o1,-2.6,0.66,-10,-14,1.4,-0.3,2,x,i
OCC1CCCN(C(=S)NCCc2ccccc2)C1 (configuration not stated),1.7,0.72,x,x,x,-2.4,-3,0,x
Cc1nn(CCCC(=O)N2CCN(c3ccc(F)cc3)CC2)c(C)c1[N+](=O)[O-],1.6,0.64,-14,-9,-1.8,0.9,-8,x,i
Cc1cc(NC(=O)NN2CCOCC2)nn1-c1c(Cl)cc(Cl)cc1Cl,-6.2,0.64,-2,4,1.6,3.6,-5,-7,i
CCC(=O)Nc1nnc(S(=O)(=O)N(CC)c2ccc(Cl)cc2)s1,1.2,0.67,-1,3,-0.4,3.4,-2,x,i
COc1cccc(C(=O)N(Cc2ccc(N(C)C)cc2)C2CCS(=O)(=O)C2)c1 (configuration not stated),-0.2,0.72,x,x,x,0.9,-5,88*,x
CCOC(=O)[C@]12CCCC=C1N(Cc1ccc(Cl)cc1Cl)C(=O)[C@H](CC(=O)NCC13CC4CC(CC(C4)C1)C3)C2,1.9,x,9,14,-0.1,x,x,x,i
C/C(=N/NC(=S)Nc1ccccc1)c1ccc2c(c1)OCO2,0.3,x,-2,-6,-2.8,x,-6,15,i
O=C(NCc1cc(Cl)cc(Cl)c1)c1csc([C@@H]2C[C@H](O)[C@@H](CO)O2)n1,-1.6,x,-4,-12,-9.4,x,x,x,i
CCCOc1ccc(N2C(=O)CC(N(O)c3ccccc3)C2=O)cc1 (configuration not stated),-0.9,0.73,x,x,x,1.7,5,0,x
CCOc1cc(CNC(=O)CN2C(=O)c3ccccc3S2(=O)=O)ccc1OC,1.9,0.71,x,x,x,-1.1,0,-1,x
COc1ccc(C(=O)COC(=O)/C=C/c2ccccc2)cc1,2.9,0.71,17,10,5.0,3.9,-5,-1,i
CC1CC(C)CN(C(=O)COC(=O)c2cncc(Br)c2)C1 (configuration not stated),-1.4,0.67,7,10,-0.5,0.8,-3,-9,i
COc1cc(/C=C2\SC(=S)N(CC(=O)Nc3ccc(O)cc3)C2=O)cc(OC)c1OC,2.8,0.71,-1,2,-2.2,5.9,1,x,i
COC(=O)c1ccc(C2C3=C(Nc4nnnn42)c2ccccc2OC3)cc1 (configuration not stated),-0.3,0.7,x,x,x,-132,-2,7,x
S=C(NCCc1ccccc1)N1CCN(C(c2ccccc2)c2ccccc2)CC1,4.0,0.73,8,21,10,-3.2,16,-5,i
CN(CC(=O)Nc1ccc(F)cc1)C(=O)Cn1cnc2ccc(Cl)cc2c1=O,1.5,0.65,x,x,x,3.3,1,6,i
c1ccc(-n2ncc3c(N4CCCC4)ncnc32)cc1,-0.8,0.67,x,x,x,-1.9,-7,-1,x
